# Screening data (PubChem)
# TRPML1 agonist = activates the human TRPML1 channel. AID 624414. Q9GZU1. activation, % (test concentration not listed). TRPML1-expressing cells, Ca2+ dye fluorescence, FDSS; host cell line not named in the record; reference of the full effect not given here. hit rate 0.12% among 410,000; in the data active = activation above about 50%; inconclusive = about 30% to 50%; inactive = below about 30%; note: 0% is about no effect; the text of the record puts the active cut at 80%
# Target sequence (Q9GZU1 whole entry, looked up): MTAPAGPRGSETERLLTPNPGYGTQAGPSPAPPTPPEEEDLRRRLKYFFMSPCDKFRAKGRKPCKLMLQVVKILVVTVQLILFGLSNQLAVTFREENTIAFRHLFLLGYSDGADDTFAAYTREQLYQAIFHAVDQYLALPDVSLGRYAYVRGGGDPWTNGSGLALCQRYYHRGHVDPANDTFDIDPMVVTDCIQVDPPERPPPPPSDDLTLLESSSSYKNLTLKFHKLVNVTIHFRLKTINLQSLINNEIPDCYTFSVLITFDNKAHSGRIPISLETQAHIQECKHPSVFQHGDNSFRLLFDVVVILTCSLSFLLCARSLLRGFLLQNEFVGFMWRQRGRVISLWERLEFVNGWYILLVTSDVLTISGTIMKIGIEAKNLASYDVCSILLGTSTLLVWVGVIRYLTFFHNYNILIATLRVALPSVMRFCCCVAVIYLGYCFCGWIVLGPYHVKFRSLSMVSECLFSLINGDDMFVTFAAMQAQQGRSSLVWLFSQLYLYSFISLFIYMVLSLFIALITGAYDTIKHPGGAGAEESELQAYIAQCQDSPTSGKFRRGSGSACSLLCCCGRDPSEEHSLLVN
#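 Calcium fluorescence on an FDSS kinetic reader gave the read-out. Tet-induced TRPML1-DL cells were plated overnight, dye-loaded (Ca8 with quencher, 45-90 min, room temperature, dark), then read 110 s after compound addition, and again 110 s after 4uM final 54-4 (EC80).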
# Sfp inh = blocks B. subtilis Sfp PPTase activity | Q9F4F7 | hit rate 3.5% among 310,000 | Biochemical Sfp PPTase activity, qHTS | Potency, µM, for the others: max response, negative = inhibition, actives largely listed as inhibitors; active = well fitted inhibition curve with a large enough effect; inconclusive = small, poorly fitted or top-dose-only effect, or another doubt; inactive = no such curve, though single readings can be large or run the other way;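 note: the enzyme is Sfp with the accession as filed and its product quenches rhodamine fluorescence; potency is the fitted concentration of half-maximal effect; 0% = enzyme reaction without inhibitor and -100% = no enzyme wells; top concentration of the series not given in the record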
#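 Fluorescence-quenching assay with 15 nM Sfp, 5 uM rhodamine-CoA and 12.5 uM BHQ-2-labelled ybbR peptide in pH 7.6 Hepes/MgCl2 buffer. Enzyme was pre-incubated with compound for 15 min at room temperature. Rate was taken from the 30-min fluorescence change (525/598 nm).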
# ClpP mod = qHTS Assay for Activators of ClpP. purified B. subtilis ClpP, FRET peptide cleavage, 20 min. ATP-dependent Clp protease proteolytic subunit (Bacillus subtilis (strain 168)), P80244. Potency, µM (titrated, usually from 57.5 µM), without a hit: at the top dose activity change, negative = active. hit rate 1.9% among 340,000; active = well fitted falling curve with a large enough effect; inconclusive = small, poorly fitted or top-dose-only effect; inactive = no such curve, though single readings can be large or run the other way; note: potency is the fitted concentration of half-maximal effect; the source files actives as falling curves though it sought activators and does not explain the sign; nearly all actives have a fitted effect of over 65% in size; many hits overshoot -100%
# Target sequence (P80244 whole entry, looked up): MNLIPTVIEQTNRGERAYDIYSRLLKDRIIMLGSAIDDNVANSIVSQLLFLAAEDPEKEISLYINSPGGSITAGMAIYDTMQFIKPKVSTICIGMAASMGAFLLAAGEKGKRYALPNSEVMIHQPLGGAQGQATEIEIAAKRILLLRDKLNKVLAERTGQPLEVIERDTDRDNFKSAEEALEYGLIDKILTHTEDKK
#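 ClpP 10 microg/mL final, pH 8 Tris/KCl buffer with BSA, glycerol, Tween-20; compound pinned in; FRET-FV substrate; RT 20 min; Ex320/Em430; ΔFRET vs ADEP 5.8 microM, DMSO, no enzyme.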
# Menin-MLL FL inh = inhibitors of human menin-MLL interaction, wild-type MLL peptide | Fluorescence polarization, fluorescein-MLL peptide displacement from menin | FP activity change, % at 61.4 µM | 290,000 tested, under 10 active | AID 1766; inconclusive = falling polarisation curve, or a change in total fluorescence; inactive = total fluorescence flat and polarisation flat or rising; no compound was filed as active; the % refers to the polarisation; negative = inhibition;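 note: % of control where 0% means no effect; inhibitors lower the polarisation; unlabelled MLL peptide was the positive control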
# TRPML1 inh = blocks the human TRPML1 channel. TRPML1-inducible cells, Ca2+ dye fluorescence, FDSS; stronger effect = lower value; inhibition of EC80 agonist-evoked calcium signal. activity change, negative = inhibition, % (no concentration beside the values). hit rate 0.02% among 390,000. AID 624415; in the data active means activity change below about -50%; inconclusive means about -30% to -50%; inactive means above about -30%;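 note: stimulus is agonist 54-4 at its EC80 concentration; % is set by controls: 0 for no effect and ±100 for the full control effect; compound concentration not given in the record; the text of the record puts the active cut at -80%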
#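 Calcium fluorescence in TRPML1-DL cells induced overnight with Tet: a 110 s read after compound pin addition, then a 110 s antagonist read after challenge with 54-4 at 4 uM final (EC80).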
# PINK1 expr mod = PINK1 expression modulation; PINK1 immunofluorescence, high-content cytometry, 24 h; Potency, µM (highest dose often 76.6 µM), inactives show at the highest dose activation (PINK1 increase), most hits filed as activators; hit rate 0.2% among 410,000; AID 624263; active = well fitted activation curve with a large enough effect; inconclusive = small, poorly fitted or top-dose-only effect; inactive = flat fitted curve, though single readings scatter; cell line not stated here;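 note: potency is the fitted concentration of half-maximal effect; % of control where 0% means no effect; nearly all actives have a fitted effect of over 65% in size; a mitochondrial uncoupler was the plate control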
#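 Compound titrations (5 concentrations, 24 h) on a stable cell line; DMSO and CCCP controls. Endpoint: fixed-cell PINK1 immunofluorescence with mitochondrial, cell and nuclear markers, scanned by microplate cytometer.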
# TRPV1 PAM = potentiators of human vanilloid receptor 1 (TRPV1). TRPV1-expressing cells, Fluo-8 calcium influx, capsaicin EC20 potentiation; host cell line not named in the record; control for the full effect not named in the record. hit rate 0.02% among 320,000. potentiation, % at 8.33 µM. AID 540277; active means potentiation above 80%; inconclusive means 30% to 80%; inactive means below 30%; note: 0% is about no effect
#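 TRPV1-expressing cells were cultured overnight at 35.5C and loaded with Fluo-8 calcium dye for 40 to 90 min at room temperature. After a 10 s baseline, compound was added and calcium influx was read kinetically for 3 min (ex 480/em 520 nm).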
# Numbers without * were called inactive; ? = inconclusive; nt = not tested or not shown; & = joins results of further samples; [ ] = dose if it differs, or a comment.
SMILES,TRPML1 agonist,Sfp inh,ClpP mod,Menin-MLL FL inh,TRPML1 inh,PINK1 expr mod,TRPV1 PAM
CN1CCC(n2[nH]c(-c3ccccc3)c(Cc3ccccc3)c2=O)CC1,0.7,nt,nt,nt,2,2.0%,nt
Cc1ccc(CN2CCN(/N=C\C(Br)=C\c3ccccc3)CC2)cc1,3.3,-24%,nt,-1.6,6,3.6%,-9
Cc1cc(-c2c(C)[nH]n(-c3ccccc3)c2=O)n[nH]1,0.0,35%[activator],nt,-0.2,11,0.9%,6
Nn1c(Cc2ccccc2F)nnc1SCC(=O)Nc1cccc(S(=O)(=O)NC2=NCCCCC2)c1,0.6,1%,nt,-2.4,-6,0.8%,-29
COC(=O)c1nc2ccccn2c1F,0.2,16%,nt,1.1,-9,2.8%,14
CC(C)(C)NC(=O)C(c1ccccn1)N(C(=O)C1CSC(=O)C1)c1ccc(F)cc1 (configuration not stated),-0.1,-4%,-0.2%,0.8,7,-0.2%,-23
Cc1ccc(N2CC(C(=O)NCc3n[nH]c(=O)c4ccccc34)CC2=O)cc1 (configuration not stated),-0.5,nt,-2.9%,nt,-16,0.0%,-7
CC1CCc2[nH]c3ccc(C(=O)N(C)CC(=O)Nc4ccccc4Br)cc3c2C1 (configuration not stated),1.3,nt,16µM*,nt,14,-1.8%,0
CCOC(=O)C1CC=C(Cl)CC1C(=O)Nc1nccs1 (configuration not stated),0.8,0%,-0.4%,0.1,-9,2.1%[38.3 µM],-2
Cc1ccc(Nc2ncnc(N)n2)cc1C,0.3,13%,2.3%,-1.2,53,0.0%,-18
CSc1ncc(C(=O)O)n1-c1ccc(F)cc1,0.2,11%,-0.5%,14,5,-0.9%,-12
Cc1cccc(N2C(=O)CC(N(O)c3ccccc3)C2=O)c1 (configuration not stated),0.5,-22%,-1.6%,1.1,-7,-1.9%,-1
Cc1ccc(CNc2nc3ccccc3c3nc(-c4cccc(C)c4)nn23)cc1,1.7,nt,-1.3%,nt,28,0.0%,nt
COc1ccc(CN(C)C(=O)c2cc(-c3ccccc3)nc3ccc(C)cc23)c(OC)c1OC,4.2,-8%,-8.1%,nt,46,-3.5%,-12
Cc1cc(C)cc(C(=O)N2CCC3(CC2)NCCc2[nH]cnc23)c1,0.2,9%,-2.6%,nt,-9,-0.3%,4
Cc1ccc(-n2ncc3c(NCCCN4CCOCC4)ncnc32)cc1Cl,-0.7,nt,-1.9%,nt,-4,1.9%,nt
FC(F)(F)c1cccc(-c2cc3nc(NCCOc4ccccc4)ccn3n2)c1,-0.5,nt,3.8%,nt,nt,4.1%,nt
CC1CCC(NC(=O)Cn2ncc3c4ccccc4n(Cc4ccc(Cl)cc4)c3c2=O)CC1 (configuration not stated),1.4,nt,-11%,nt,1,-0.7%,nt
C=CCN(C(=O)CCc1ccccc1OC)c1nc(-c2ccc(S(C)(=O)=O)cc2)cs1,0.0,-7%,-29%,nt,41,-0.1%,-3
O=S1(=O)c2cccc3cccc(c23)N1Cc1ccc(-c2nnco2)cc1,-0.4,11%,?,1.3,-3,-0.2%,18
COc1ccc(C(=O)NCc2ccccc2)cc1Br,-0.8,3%,4.6%,1.9,-1,4.7%,-25
CN(C)S(=O)(=O)c1ccc2c(c1)nc(CCC(=O)NCC1CCCCC1)n2C,-0.7,12%,-2.1%,1.6,2,-1.1%,-4
COC(=O)c1ccc(CSc2ncnc3sc(C)c(C)c23)o1,0.6,-4%,-6.0%,1.6,10,nt,1
COc1ccc(C(=O)Nc2ccccc2C(=O)O)cc1Cl,3.0,26%,-3.0%,1.9,25,0.6%,2
Cc1ccc(S(=O)(=O)NCCc2csc3nc(-c4ccccc4C)nn23)cc1,-1.2,nt,-1.5%,nt,6,1.9%,nt
# The results go on.
SMILES,TRPML1 agonist,Sfp inh,ClpP mod,Menin-MLL FL inh,TRPML1 inh,PINK1 expr mod,TRPV1 PAM
COc1cccc(CNC(=O)c2cc(=O)[nH]c3ccc(S(=O)(=O)N4CCCC4)cc23)c1,-0.8,nt,-3.5%,nt,-3,0.0%,nt
C[N+]1(CCCCCCC(=O)/C=N/O)CCCCCC1,-0.7,1%,-3.0%,4.8,-8,0.8%,-2
O=C(CSc1nc(O)c(C2CCCCC2)c(=O)[nH]1)Nc1ccccc1Cl,-0.3,27%,nt,-0.8,-9,0.8%,2
COC(=O)c1ccc(CNC(=O)C2CCC(=O)N(CCCc3ccccc3)C2)cc1 (configuration not stated),0.1,14%,-4.0%,nt,-6,-0.4%,?
O=C(COC(=O)Cc1ccccc1F)NCCc1ccccc1,-0.2,nt,0.8%,nt,0,1.3%,-16
CN1CCN(S(=O)(=O)c2cccc(C(=O)Nc3ccccc3N3CCOCC3)c2)CC1,1.0,0%,-0.8%,-1.7,-11,-1.5%,-2
CC1CC(=O)N(c2ccc(N(C)Cc3ccccc3)c([N+](=O)[O-])c2)C1=O (configuration not stated),-0.3,-28%,nt,-2.5,-6,1.0%,13
COc1ccc(C(NC(=O)CC(C)C)c2c(O)ccc3ccccc23)cc1 (configuration not stated),1.0,-4%,3.4%,-4.4,16,?,?
CN(C)c1cccc(NC(=O)C2Cc3c(-c4ccc(Cl)cc4)ccnc3O2)c1 (configuration not stated),-1.3,nt,-18%,nt,nt,2.8%,nt
COC(=O)Cn1nc(-c2ccc(C)cc2)c2ccccc2c1=O,-0.6,4%,nt,-1.6,29,1.6%,-15
COc1ccc2oc(C(=O)OCC(=O)N(C)c3ccccc3)c(C)c2c1,-0.7,nt,nt,nt,2,1.9%,-21
Brc1ccc(-c2nc3ccccc3s2)s1,-1.2,-3%,28µM*,0.5,24,-2.2%,4
O=C(Nc1cc(C(F)(F)F)ccc1Cl)C(=O)N1CCCCC1,-0.8,21%,-29%,6.5,0,2.9%,-18
CC(C)(C)c1ccc(S(=O)(=O)CC(O)CSc2nc3c(cc2C#N)CCCC3)cc1 (configuration not stated),-0.3,6%,1.5%,1.7,1,-1.4%,6
CC(C)(C)C(=O)NC(=S)N1CCOCC1,0.4,10%,-1.1%,1.4,-7,1.2%,3
Cn1nccc1C(=O)N1CCCC(C(=O)c2ccc(Oc3ccccc3)cc2)C1 (configuration not stated),1.4,-5%,0.7%,-2.4,-10,-0.1%,-3
Cc1cccc(N2CCN(C(=O)C3CCCN(S(=O)(=O)c4cnc[nH]4)C3)CC2C)c1 (configuration not stated),-0.4,0%,-2.8%,-1.5,2,-2.2%[38.3 µM],6
N#Cc1ccsc1NC(=O)CN1CCN(c2ccc(O)cc2)CC1,-0.6,-25%,0.9%,9.1,-7,1.0%,2
CCOc1ccc(NC(=S)Nc2cccc3ccccc23)cc1,2.0,-25%,3.3%,-3.6,-16,0.0%,12
O=C(Nc1ccc(F)cc1F)c1ccc2c(c1)CCN2S(=O)(=O)c1ccc(Cl)cc1,0.1,nt,-1.6%,nt,37,-0.3%,nt
O=S(=O)(Nc1cccc(-c2ccc3nncn3n2)c1)c1ccccc1F,-0.5,nt,nt,nt,36,1.9%,-5
Cc1ccc(-c2nnc(NCc3nc4ccccc4[nH]3)c3ccccc23)cc1S(=O)(=O)N1CCCCC1,-0.2,25%,-8.8%,4.3,-20,11%,?
COc1ccc2[nH]c(=O)c(CN(Cc3ccco3)Cc3nnnn3Cc3ccccc3)cc2c1,1.8,56µM*,25µM*,-2.4,6,15%,16
Cc1ccc(-n2cc(CN3CCNC(=O)CC3)c(-c3cccc(C)c3)n2)cc1,-0.5,-12%,nt,5.8,3,1.5%,-10
C/C(=N\NC(=O)CCCNc1cccc(C)c1)c1ccncc1,0.1,-7%,2.4%,-0.3,-4,-0.8%,3

# Sfp inh, hit marks shown above.
Compound	Sfp inh	Menin-MLL FL inh	TRPML1 inh	PINK1 expr mod
COc1ccc2[nH]c(=O)c(CN(Cc3ccco3)Cc3nnnn3Cc3ccccc3)cc2c1	56µM*	-2.4	6	15%

# (continued)
SMILES,TRPML1 agonist,Sfp inh,ClpP mod,Menin-MLL FL inh,TRPML1 inh,PINK1 expr mod,TRPV1 PAM
COc1ccc(NS(=O)(=O)c2ccc(N/N=C(\C)c3ccncc3)c([N+](=O)[O-])c2)cc1,-0.4,-10%,0.6%,1.1,16,0.3%,-16
Cc1ccc(CNC(=O)c2ccc(C)s2)cc1,0.4,nt,nt,nt,-5,-0.2%,nt
COc1nccnc1NS(=O)(=O)c1ccc(N)cc1,1.1,15%&-1%,-3.4%,-9.9&4.9,-15,-1.3%,5
COc1ccc(N(C(=O)c2cccnc2)S(=O)(=O)c2cccc([N+](=O)[O-])c2)cc1,-0.9,15%,nt,-4.2,20,2.1%,-6
Cc1ccc(NC(=O)c2ccc(NCCN)c([N+](=O)[O-])c2)cc1Cl,-1.0,-11%,1.9%,7.2,18,-0.5%,6
COc1ccc(OC)c(C(=O)NC2CC(C)(C)Cc3c2cnn3-c2ccccc2)c1 (configuration not stated),-0.3,-12%,4.0%,-5.2,-11,7.8%,-15
CCN(C(=O)COC(=O)C(Cc1ccccc1)N1C(=O)c2ccccc2C1=O)C1CCS(=O)(=O)C1 (configuration not stated),0.6,-6%,-2.2%,2.3,15,3.5%,6
CCOC(=O)c1ccc(NS(=O)(=O)c2cc3c(cc2C)n(C)c(=O)c(=O)n3C)cc1,2.4,nt,-4.1%,nt,33,4.3%,nt
O=C(CS(=O)(=O)c1ccc(Cl)cc1)NCc1ccccc1,0.1,19%,-1.0%,-1.0,-11,0.4%,-7
COc1ccc(C(=O)c2c(N)sc3c2CCN(C)C3)cc1,1.4,-3%,-23%,?,2,1.4%,19
O=C(Nc1cccc(C(F)(F)F)c1)c1sc(Cl)nc1C(F)(F)F,1.5,14%,-3.9%,0.7,-9,2.7%,12
c1ccc(Cn2nnc3cnccc32)cc1,0.0,-7%,-2.3%,-0.2,6,nt,6
N#Cc1ccc(C(=O)N2CCCCC2c2cc(C(=O)Nc3cccc(C#N)c3)no2)cc1 (configuration not stated),1.3,nt,-2.5%,nt,nt,1.0%,nt

# 3 compounds from above, arranged by the value under Sfp inh, high to low.
Molecule,Sfp inh
CCN(C(=O)COC(=O)C(Cc1ccccc1)N1C(=O)c2ccccc2C1=O)C1CCS(=O)(=O)C1 (configuration not stated),-6%
c1ccc(Cn2nnc3cnccc32)cc1,-7%
COc1ccc(OC)c(C(=O)NC2CC(C)(C)Cc3c2cnn3-c2ccccc2)c1 (configuration not stated),-12%
